Compound activity as filed in PubChem.
RE007 growth inh: less growth of the S. pombe RE007 Vpr strain; Potency, µM (doses to about 92.2 µM), for the others: top-dose activity change, negative = less growth; 360,000 tested, 0.21% active; S. pombe RE007 Vpr strain, BacTiter-Glo ATP luminescence, 24 h; control for the full effect not named in the record; active = well fitted falling curve with a large enough effect; inconclusive = small, poorly fitted or top-dose-only effect; inactive = no such curve, though single readings can be large or run the other way;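 further: nearly all actives have a fitted effect of over 50% in size; the assay follows cell death caused by Vpr and the record does not say whether a fall means rescue or toxicity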
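Fission yeast RE007 carrying one integrated HIV-1 vpr copy, seeded at OD 0.01 in PMG+AL medium with 23 nL pinned compound. Grown 24 h at 30 degrees; viability read by BacTiter-Glo luminescence after 5 min.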
2A StopGo: lowers the luciferase signal of an FMDV 2A StopGo reporter. human cells with a luciferase reporter of 2A StopGo recoding; control for the full effect not named in the record. 410,000 tested, 1.2% active. AID 1159524. Potency, µM (highest dose often 57.9 µM), without a hit: at the top dose signal change, negative = less light; active = well fitted falling curve with a large enough effect; inconclusive = small, poorly fitted or top-dose-only effect; inactive = no such curve, though single readings can be large or run the other way; tested in HEK293T cells; further: nearly all actives have a fitted effect of over 45% in size; luciferase light after 4 h
Starred values were filed as active, the others as inactive; ? = inconclusive; [ ] = another dose, or the depositor's remark. On the % scale 0 is the no-effect control and ±100 the full control effect; potency means the concentration at half of the fitted maximal effect. Only part of the results is shown (hit frequency here may not be typical).

SMILES	RE007 growth inh	2A StopGo
C[C@H]1CN([C@@H](C)CO)S(=O)(=O)c2ccc(Br)cc2O[C@H]1CN(C)C(=O)Nc1ccccc1F	-6%	1%
CCCCOCCCNC(=O)C[C@@H]1C[C@@]2(C(=O)OCC)CCC=C2N(Cc2cccc3ccccc23)C1=O	11%	-17%
C=CCNC(=S)N1Cc2cc(Br)ccc2-n2nncc2C1	-10%	-5%
CC(=O)Nc1ccc(NC(=O)C2Cc3c(-c4ccco4)ccnc3O2)cc1 (stereo not drawn)	3%	-7%
COC(=O)c1ccc(C(=O)N2CCCCCC2(C)C(=O)NC(C)C)cc1 (stereo not drawn)	-17%[18.4 µM]	-11%
O=C(CC1CCCC1)NCCS(=O)(=O)N1CCN(c2ccccc2)CC1	-2%	-18%
O=C1Nc2cccc3c2N(CCC3)C2=C1CCC2	-7%	-25%
CC(C)(C)[C@@H]1COC(=O)[C@H](Cc2ccc(F)cc2)CC/C=C\C[C@@H](CC(=O)NCCO)C(=O)N1	-3%	-18%
CCCC(=O)N1CCC1(C)C(=O)Nc1cccc(OC(C)C)c1 (stereo not drawn)	-3%	-14%
O=C(COC(=O)c1cc(S(=O)(=O)N2CCOCC2)ccc1Cl)NC1CCCCC1	5%	-17%
COc1ccccc1CNc1nc(NCCOc2ccccc2Cl)c2sccc2n1	-1%	22µM*
COc1ccc(S(=O)(=O)N2C[C@@H](O)COC[C@@H]3O[C@H](CC(=O)NCCCN4CCOCC4)CC[C@H]32)cc1	1%	-9%
CC1(C(=O)NS(=O)(=O)c2ccc3ccccc3c2)CCN1C(=O)Cc1ccc(Cl)cc1Cl (stereo not drawn)	13%[18.4 µM]	13%
COc1ccc(NC(=O)CCCNC(=O)c2ccc(Cl)cc2)cc1S(=O)(=O)N1CCCCC1	-3%	-24%
CC(=NOC(=O)c1ccc(F)cc1)c1nccs1	-26%[18.4 µM]	-3%
Cc1ccccc1S(=O)(=O)N1C(c2ccc(Cl)cc2)CC=C(C(=O)O)C1c1cccc(Cl)c1 (stereo not drawn)	4%	-9%
COc1ccc(NC(=O)C2Cc3c(-c4ccncc4)ccnc3O2)cc1OC (stereo not drawn)	15%[18.4 µM]	-18%
CCN(c1ccccc1)S(=O)(=O)c1ccc(OC)c(NC(=O)c2ccco2)c1	-1%	-15%
CSc1ccccc1NC(=O)C1(C)CCN1C(=O)Cc1ccc(Cl)cc1Cl (stereo not drawn)	9%[18.4 µM]	-12%
CC(=O)Nc1cc(-c2ccc(F)cc2)cn2c(-c3ccc(F)cc3)cnc12	3%[18.4 µM]	-21%
COc1ccc(OC(=O)N(C)C[C@@H]2OCc3cnnn3CCCC(=O)N([C@H](C)CO)C[C@@H]2C)cc1	-13%	-13%
OC[C@@H]1CN(C2CCCC2)C[C@H](n2cnc3c(NC4CCC4)ncnc32)O1	-13%	-8%
OC[C@@H]1CN(Cc2ccc(F)cc2)C[C@H](n2cnc3c(N4CCCC4)ncnc32)O1	0%	-17%
CC(C)(C)S(=O)N1Cc2cc(C(=O)NCCCN3CCOCC3)nc(-c3cccc(-c4cc5ccccc5o4)c3)c2[C@H]1CCO (stereo partly drawn)	-1%	-12%
Nn1c(COc2ccccc2F)nnc1SCC(=O)NCC1CCCO1 (stereo not drawn)	9%	-16%
COc1ccccc1NC(=O)N(C)C[C@@H]1OCc2cn(nn2)CCCC(=O)N([C@@H](C)CO)C[C@H]1C	0%	-9%
O=C(C[C@H]1CC[C@@H]2[C@H](COC[C@H](O)CN2C(=O)c2cnccn2)O1)NCc1ccc(Cl)cc1	4%	-12%
COC(=O)C[C@@H]1CC[C@H](NC(=O)Nc2ccc(OC)cc2)[C@@H](CO)O1	6%	-13%
c1ccc2oc(-c3ccc4c(c3)CNCc3cnnn3-4)cc2c1	7%	42%[activator]
CC1(C(=O)NS(=O)(=O)c2ccc(Cl)s2)CCN1C(=O)Cc1cc(F)ccc1F (stereo not drawn)	7%	-12%
Cc1ccc(Cn2c(C3CCCN3c3nc(-c4ccc(F)cc4)cs3)nc3cc(C(F)(F)F)ccc32)cc1 (stereo not drawn)	-6%	0%
CCC(=O)N1CCC1(C)C(=O)Nc1ccc(OC)c(OC)c1 (stereo not drawn)	3%	-15%
CC(C)(C)c1ccc(CC(=O)N2CCC2(C)C(=O)Nc2ccc3[nH]ncc3c2)cc1 (stereo not drawn)	-4%	-17%
CC(=O)Oc1ccccc1Cn1c(C)c(C(=O)NCc2ccc(F)cc2)sc1=O	-10%[18.4 µM]	0%
CS(=O)(=O)N(CCc1ccccc1)CC(=O)N1CCCCCC1	0%	-16%
O=C(NCc1ccccc1)c1cc(C2COCCN2C(=O)c2ccccc2)on1 (stereo not drawn)	10%	-9%
CC(C)c1cc(Cn2c3ccccc3c(=O)n2C(C)CBr)on1 (stereo not drawn)	19%	-6%
O=C(CCN1CCN(c2ccccc2)CC1)NNC(=O)c1ccccc1	-13%	-16%
COCCNC(=O)C1(C)CCCN(C(=O)c2ccc3c(c2)CCO3)C1 (stereo not drawn)	2%[18.4 µM]	3%
CC(C)C[C@@H](CNCC(=O)[C@H](Cc1ccccc1)NC(=O)c1[nH]cnc1C(=O)N[C@H](CN)CC(C)C)NC(=O)c1nc[nH]c1C(=O)N[C@@H](CC(=O)O)C(=O)O	25%	-19%
Nc1ccn(C2OC(CCl)C(O)C2O)c(=O)n1 (stereo not drawn)	9%	-9%
Cc1ccccc1C(=O)NCC(=O)c1ccccc1	-9%	42%[activator]
COc1cccc(C(=O)c2ccccc2C(=O)O)c1	4%[18.4 µM]	-8%
COCCCNC(=O)[C@@H](Cc1ccccc1)NC(=O)CC[C@H]1O[C@@H](n2ccc(=O)[nH]c2=O)[C@H](O)[C@@H]1O	9%	-14%
CCS(=O)(=O)NC(=O)C1(C)CCN1C(=O)Cc1ccc(Cl)cc1Cl (stereo not drawn)	4%	6%
Cc1ccccc1CN1C(=O)CN(S(C)(=O)=O)CC1(C)C(=O)Nc1c(C)cccc1C (stereo not drawn)	-9%	-10%
O=C1c2ccccc2-n2nnnc2C2c3ccccc3-n3nncc3CN12 (stereo not drawn)	1%	-15%
COc1ccc(S(=O)(=O)N2C[C@H]3CON(C)[C@H]3C[C@H]2c2ccc(-c3cccc(F)c3)cc2)cc1	17%	-12%
C#CCOCCOCCOCCNc1nc(N2CCN(C(=O)[C@H](C(C)C)n3cc(CCO)nn3)CC2)nc(N2CCN(C(=O)[C@H]([C@@H](C)CC)n3cc(CCC(=O)O)nn3)CC2)n1	7%	-5%
CC(C)(C)NC(=O)C1c2ccccc2OCC(=O)N1Cc1cccnc1 (stereo not drawn)	-12%	-25%
The list goes on.
SMILES	RE007 growth inh	2A StopGo
Cn1cc(/C=C(\NC(=O)c2ccccc2)C(=O)NCCCn2ccnc2)c2ccccc21	-24%	63%[activator]
C[C@H](CO)N1C[C@H](C)[C@@H](CN(C)Cc2cccnc2)OCc2cnnn2CCCC1=O	8%	-6%
Cc1cc(NC(=O)c2ccc(OCC3CCCO3)cc2)ccc1Br (stereo not drawn)	15%	-19%
CC(C)CNC(=O)C1(C)CCN1C(=O)c1ccc(C(C)(C)C)cc1 (stereo not drawn)	8%	?
O=C(Cn1nnc(-c2ccc(F)cc2)n1)NC(=O)NC1CCCCC1	6%	-11%
CSCCC(C(=O)Nc1c(C)cccc1C)n1c(-c2ccc(-c3ccccc3)cc2)nc2ccccc21 (stereo not drawn)	-7%	-19%
C[C@H](CO)N1C[C@H](C)[C@@H](CN(C)S(=O)(=O)c2ccccc2F)OCc2cnnn2CCCC1=O	-10%	0%
CN(CC(=O)NCc1cccs1)CC(=O)Nc1ccccc1Cl	6%	-5%
CCc1nc2c(OCC(=O)c3ccc(Cl)cc3Cl)cccn2c1N(C)C(=O)c1cccs1	-17%	-6%
C[C@H]1CN([C@@H](C)CO)S(=O)(=O)c2ccc(C#CC3CC3)cc2O[C@@H]1CN(C)S(C)(=O)=O	7%	58%[activator]
Cc1cc(C)c(C#N)c(Sc2nc(C)c([N+](=O)[O-])c(C)c2C#N)n1	0%	22µM*
Cc1ccc(C(O)c2ncc(-c3cccc(F)c3)[nH]2)cc1 (stereo not drawn)	-21%	57%[activator]
COc1ccc(-c2nc3cc(C)c(Br)c(C)n3c2Cc2ccc(C)cc2)cc1OC	-17%	-17%
CCCCn1nnnc1C(CCc1ccccc1)N1CCC(n2c(=O)[nH]c3ccccc32)CC1 (stereo not drawn)	5%	20µM*
O=C(c1ccco1)N1CC2(CC(c3ccc(Cl)cc3)=NO2)CN1Cc1ccc(Br)cc1 (stereo not drawn)	10%	?
O=C(c1ccc(S(=O)(=O)Cc2cc(F)ccc2F)c([N+](=O)[O-])c1)N1CCOCC1	-19%	?
CCCCC[C@@H](C)N1C[C@@H](COCc2ccccc2)Oc2cc(N3CCC[C@H]3COC)ccc2S1(=O)=O	4%	-2%
COc1ccc(-c2coc3c(C(=O)NCc4ccc(OC)c(OC)c4)cccc23)c(C)c1	0%	?
O=C(c1ccco1)N1CCN(C(=O)c2cnn(-c3ccc(F)cc3)c2-n2cccc2)CC1	8%	-5%
Cc1cccc(C)c1NC(=O)C1(C)CSCC(=O)N1CCc1ccccc1F (stereo not drawn)	-5%	-14%
COC(=O)C(C(=O)OC)c1ccccc1NC(=O)OCc1ccccc1	3%	-8%
COc1ccc(C(O)c2nc(-c3cncnc3)cs2)cc1 (stereo not drawn)	4%[18.4 µM]	-7%
COC(=O)C1C2CC3c4[nH]c5cc(OC)ccc5c4CCN3CC2CC(OC2CCCCO2)C1OC (stereo not drawn)	-25%	-6%
O=C1NC[C@H](CCCCN2C[C@H](Cc3ccccc3)N(CCc3ccccc3)C(=O)C2=O)N(CC2CCCCC2)C1=O	5%	-6%
COc1cccc(C(=O)NCCS(=O)(=O)N2CCN(c3ccccc3)CC2)c1OC	-12%	-1%
COc1ccc(CC(N)c2csc(NC(=O)NCCc3ccccc3)n2)cc1 (stereo not drawn)	8%	0%
COc1cc(CNc2ncnc3c2ncn3[C@H]2CN(CCc3ccccc3)C[C@@H](CO)O2)cc(OC)c1OC	-5%	-15%
Cn1cnnc1SCC(=O)N1CCc2ccccc2C1	-7%	0%
CCOC(=O)[C@]12Cc3c(cc(OC)c(OC)c3OC)[C@H]1N(CCC(=O)OC)C(=O)c1ccccc12	-18%	?
CCN1C(=O)N[C@@H](CCc2ccccc2)[C@H](C(=O)OC)[C@H]1C	7%	-1%
Cc1cccc(C)c1NC(=O)C(c1ccccc1F)n1c(=O)c(-c2ccco2)nc2ccccc21 (stereo not drawn)	-13%	-15%
Cc1cccc(S(=O)(=O)N(C)C[C@@H]2OCc3cn(nn3)CCCC(=O)N([C@@H](C)CO)C[C@H]2C)c1	-10%	-21%
O=C(NCCOc1ccccc1)C1Nc2ccc(C(F)(F)F)cc2C2c3ccccc3CC12 (stereo not drawn)	13%	-19%
Cc1cc(Cl)c(OCCOCCN2CCNCC2)c(Cl)c1	3%	-1%
CCc1nc2c(OCC=C(C)C)cccn2c1N(C)C(=O)c1ccccc1F	?	-17%
Cn1c(=O)c2c(-c3ccccc3)n(-c3cc(C(=O)O)ccc3O)cc2n(C)c1=O	9%	6%
Cc1ccc(-n2nnc(-c3cccnc3)n2)cc1	-13%	51%[activator]
Cc1ccc(S(=O)(=O)NN=CC=CC=NNS(=O)(=O)c2ccc(C)cc2)cc1	12%	-12%
COc1ccc([C@H]2N[C@]3(CCCN(Cc4ccc(C)cc4)C3=O)[C@H]3C(=O)N(C)C(=O)[C@@H]23)cc1	1%	-11%
CC1(C(=O)NS(=O)(=O)c2ccccc2Cl)CCN1C(=O)c1cccc2ccccc12 (stereo not drawn)	3%[18.4 µM]	-5%

Rewritten in markdown: entries from further up
| smiles | RE007 growth inh | 2A StopGo |
| --- | --- | --- |
| CC1(C(=O)NS(=O)(=O)c2ccccc2Cl)CCN1C(=O)c1cccc2ccccc12 (stereo not drawn) | 3%[18.4 µM] | -5% |
| Cc1cc(Cl)c(OCCOCCN2CCNCC2)c(Cl)c1 | 3% | -1% |
| O=C(NCCOc1ccccc1)C1Nc2ccc(C(F)(F)F)cc2C2c3ccccc3CC12 (stereo not drawn) | 13% | -19% |
| Cc1ccc(-n2nnc(-c3cccnc3)n2)cc1 | -13% | 51%[activator] |
| Cn1c(=O)c2c(-c3ccccc3)n(-c3cc(C(=O)O)ccc3O)cc2n(C)c1=O | 9% | 6% |
| Cc1ccc(S(=O)(=O)NN=CC=CC=NNS(=O)(=O)c2ccc(C)cc2)cc1 | 12% | -12% |
| CCc1nc2c(OCC=C(C)C)cccn2c1N(C)C(=O)c1ccccc1F | ? | -17% |

Following part
SMILES	RE007 growth inh	2A StopGo
O=C(CSc1nc(-c2ccccc2)c(-c2ccccc2)o1)N1CCCCC1	-11%	-1%
Fc1cccc(Cc2c(-c3ccccc3)nc3c4ccccc4ccn23)c1	-6%	16%
O=C(OCc1cn([C@@H]2CN(C(=O)C3CCCCC3)[C@@H](c3ccccc3)C[C@H]2O)nn1)c1ccccc1	1%	3%
CCOC(=O)C1=CC[C@@H](c2ccc(F)cc2)N(S(=O)(=O)c2ccc(C)cc2)[C@H]1c1ccccc1	11%	7%
